# Screening data (PubChem BioAssay)
# E coli growth – E. coli growth inhibition, primary screen, OD600. 330,000 compounds, 0.21% hits. OD600 absorbance (concentration not given with the values). Escherichia coli growth, 23 h; hits give low values. AID 1053175, 2014;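 active means OD600 absorbance below the run mean of sample wells minus 3.6 SD, in any replicate, cut at about 0.56 in these data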;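 further: stock transfer was 300 nL into about 60 µL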
# ALR H2O2 inh – inhibitors of human ALR sulfhydryl oxidase, primary screen, biochemical, H2O2 detection, HRP-luminol luminescence, single point; 290,000 compounds, 3.8% hits; inhibition, % (no concentration beside the values); FAD-linked sulfhydryl oxidase ALR (Homo sapiens), P55789; AID 485317, 2010; purified ALR, DTT oxidation;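 active means mean and each replicate at 75% or more; inconclusive means only one of the two met; inactive means neither met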;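 further: stock transfer was 7.5 nL into about 7.5 µL; 0% = neutral wells and 100% = wells with inactivated enzyme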
# Target sequence (P55789 whole entry, looked up): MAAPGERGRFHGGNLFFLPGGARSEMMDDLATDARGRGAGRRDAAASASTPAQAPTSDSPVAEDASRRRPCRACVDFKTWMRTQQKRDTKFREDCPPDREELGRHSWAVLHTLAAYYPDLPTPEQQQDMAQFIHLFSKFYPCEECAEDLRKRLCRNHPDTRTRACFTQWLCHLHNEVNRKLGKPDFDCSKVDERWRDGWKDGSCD
# HNF4A DNA FP – change in binding of human HNF4A to DNA, primary screen, biochemical, fluorescence polarization, FITC-DNA. 360,000 compounds, 0.3% hits. activity change, % at 10 µM. 1 h. Hepatocyte nuclear factor 4-alpha (Homo sapiens), P41235; in the data active means activity change above about 30%, passing the limit was not always enough;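 further: controls were the assay level and a saturating level of protein; the project sought stronger binding though the title names inhibitors; some compounds called inactive have numbers as strong as hits; positive values seem to mean higher polarization but the record does not say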
# Target sequence (P41235 whole entry, looked up): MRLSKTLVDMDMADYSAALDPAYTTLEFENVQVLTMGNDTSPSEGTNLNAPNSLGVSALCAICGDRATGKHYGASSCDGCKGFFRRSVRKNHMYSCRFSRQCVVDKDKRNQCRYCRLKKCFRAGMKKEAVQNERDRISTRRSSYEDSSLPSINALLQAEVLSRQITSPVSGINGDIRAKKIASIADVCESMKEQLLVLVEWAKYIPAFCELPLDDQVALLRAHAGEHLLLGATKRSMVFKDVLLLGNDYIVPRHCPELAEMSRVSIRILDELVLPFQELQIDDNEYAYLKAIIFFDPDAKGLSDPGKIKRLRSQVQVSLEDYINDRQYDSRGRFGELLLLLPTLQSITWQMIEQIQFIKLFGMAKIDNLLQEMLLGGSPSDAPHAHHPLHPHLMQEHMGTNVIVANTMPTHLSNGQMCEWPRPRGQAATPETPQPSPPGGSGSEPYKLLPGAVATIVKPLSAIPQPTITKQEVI
# Vif TR-FRET – inhibitors of Vif binding to APOBEC3G peptide, primary screen, biochemical, TR-FRET, GST-Vif 1-94, biotin-A3G peptide, dose response retest (AID 1117319); one-dose inhibition, %; IC50 in µM for titrated hits; TR-FRET GST-Vif / biotin-A3G peptide binding; higher % means a stronger effect; test concentration not given here; strong numbers were not always called active; 260,000 compounds, 0.57% hits;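 active means above the screen mean plus three standard deviations and confirmed in dose response; inconclusive means results disagree or hit not tested in dose response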;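 further: Vif residues 1-94 fused to GST binding biotinylated APOBEC3G peptide 110-148; 0% = full assay without inhibitor and 100% = GST in place of GST-Vif; retest series ran down from 100 µM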
# FGF22 binding – binders of human FGF22 protein, primary screen, FGF22 synaptogenesis inhibitor project, biophysical, thermal shift, single point; Fibroblast growth factor 22 (Homo sapiens), Q9HCT0; AID 651658, 2012; 340,000 compounds, 1.5% hits; recombinant FGF22 thermal shift, SYPRO orange fluorescence; percent of sucrose octasulfate shift, DMSO zero; calls only at 9.99 µM;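 active means melting point raised past a set limit in the mean and every replicate; inconclusive means no clear call; three in four hits are not shown here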
# Target sequence (Q9HCT0 whole entry, looked up): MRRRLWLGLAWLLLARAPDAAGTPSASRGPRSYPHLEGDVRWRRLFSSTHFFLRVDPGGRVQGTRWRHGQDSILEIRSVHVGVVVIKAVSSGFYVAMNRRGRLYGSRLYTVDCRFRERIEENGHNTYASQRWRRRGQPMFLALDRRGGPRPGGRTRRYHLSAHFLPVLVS
# AF4-AF9 inh – inhibitors of AF4 peptide binding to AF9, primary screen, biochemical, AlphaScreen, biotin-AF4 peptide, FLAG-AF9, single point. Protein AF-9 (Homo sapiens), P42568. inhibition, % at 10 µM. 350,000 compounds, 0.47% hits. AID 651704, 2012;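 active means every replicate reaching a set inhibition limit, whatever the replicate mean, cut at about 25% in these data; inconclusive means mean inhibition reaches that limit but some replicates miss it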;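 further: 0% = plate neutral control median and 100% = total signal loss; the record names both 10 and 1 µM as test concentration; the first replicate is given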
# Ecoli rRNA inh – reduced GFP signal of wild-type E. coli, primary screen, bacterial rRNA inhibitor project, GFP/RFP fluorescence, OD600, single point; E. coli WT GFP vs humanized-ribosome RFP mutants, 24 h; hits give low values; DMSO median 0, no signal -100; AID 720706, 2013; 350,000 compounds, 1.6% hits; GFP signal change (wild-type ribosome), % (no concentration beside the values);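 active means significant combined selectivity score with lowered wild-type GFP, culture density cut under 30%, mutant RFP and density less affected; inactive means any of these conditions unmet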; further: one replicate is shown; some compounds called inactive have numbers as strong as hits
# Ecoli rRNA inh OD600 – second read-out of Ecoli rRNA inh, no call of its own (marks repeat the call); OD600 change, %; measured here: OD600 growth;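 optical density of the mix in the first replicate; 0 = DMSO median and -100 = no signal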
# Ecoli rRNA inh RFP – second read-out of Ecoli rRNA inh, no call of its own (marks repeat the call); RFP signal change, %; measured here: RFP humanized mutant strains;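 first replicate; 0 = DMSO median and -100 = no signal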
# An asterisk follows results filed as active; i = inactive; u = inconclusive; x = not tested or not shown; & = joins results of further samples. The list is partial; the hit share may differ from the screen's.
# Each structure is followed by: E coli growth	ALR H2O2 inh	HNF4A DNA FP	Vif TR-FRET	FGF22 binding	AF4-AF9 inh	Ecoli rRNA inh	Ecoli rRNA inh OD600	Ecoli rRNA inh RFP
O=C(Nc1cc(F)ccc1F)N[C@@H]1C=C[C@@H](CC(=O)N2CCc3ccccc3C2)O[C@@H]1CO
 : x	x	x	x	i	-3.7	-13	-8	0.9
C[C@H]1CN([C@@H](C)CO)C(=O)c2cc(NC(=O)NC3CCCCC3)ccc2O[C@@H]1CN(C)Cc1ccncc1
 : x	x	x	x	i	2.7	-1	-2	-1.1
Cn1c(Cn2c(=O)sc3ccccc32)nnc1SCc1ccccn1
 : 0.69	1	-0.3	25%	x	x	x	x	x
Cc1cccc(C(=O)NC2CCN(C(=O)Nc3ccc(F)cc3)CC2)c1
 : 0.69	3	1.3	3%	i	-1.8	1	0	-0.2
CC(C)C1C(=O)N(Cc2cn(CCC3OCCCO3)nn2)CCS(=O)(=O)N1Cc1ccc(-c2ccc(F)nc2)cc1 (stereo not drawn)
 : x	x	-7.8	7%	i	-1.1	-6	-6	1.7
Cc1cc(O)c(C=O)c2c1C(=O)Oc1c(CO)c(O)c3c(c1O2)C(O)OC3=O (stereo not drawn)
 : x	99*	-60	9%	x	x	x	x	x
Cc1ccc(S(=O)(=O)N(C)C[C@@H]2Oc3c(NC(=O)c4nc5ccccc5s4)cccc3C(=O)N([C@H](C)CO)C[C@H]2C)cc1
 : x	x	x	x	i	-2.5	-5	0	-5.4
Cc1cccc(N2C(=S)N=C(Nc3c(C)cccc3C)C23CCOC(C)(C)C3)c1 (stereo not drawn)
 : 0.72	2	-1.1	-6%	x	x	x	x	x
O=C(COC(=O)/C=C/c1ccccc1[N+](=O)[O-])NNC(=O)c1ccc(F)cc1
 : 0.66	x	1.8	7%	i	-3.3	2	-1	0.7
CC1CCCC(NC(=O)c2cc(S(=O)(=O)N3CCCCC3)c[nH]2)C1C (stereo not drawn)
 : x	x	1.6	x	i	7.9	-11	-24	4.6
COc1ccc(-c2oc3ccccc3c2C(=O)OCc2ccccc2OC)cc1
 : x	-1	-1.2	x	i	0.3	4	3	2.5
CC(=O)c1nn(-c2ccc(Br)cc2)cc1C(=O)c1ccccc1
 : 0.7	2	0.2	-1%	x	x	x	x	x
COc1ccc(NC(=O)CSc2nnc(-c3cccs3)n2Cc2ccco2)cc1OC
 : 0.72	-13	-1.9	21%	x	x	x	x	x
Nc1nncn1C(=O)CCCN1C(=O)c2ccccc2C1=O
 : 0.63	-9	3.4	-3%	x	x	x	x	x
CCc1ccc(OCCOCC(O)CNC2CCCC2)cc1 (stereo not drawn)
 : 0.69	-19	8.5	-2%	i	1.6	12	4	0.8
Cc1noc(C)c1S(=O)(=O)N(C)C[C@@H]1OCCCC[C@@H](C)Oc2ccc(NC(=O)Nc3ccc(F)cc3)cc2C(=O)N([C@H](C)CO)C[C@H]1C
 : x	x	x	x	i	0.1	2	-4	0.6
C[C@@H]1CN([C@H](C)CO)C(=O)c2cc(NC(=O)c3ccncc3)ccc2O[C@@H](C)CCCCO[C@H]1CN(C)Cc1ccc(C(F)(F)F)cc1
 : x	x	x	x	i	3.9	-1	-4	0.4
C[C@H](CO)N1C[C@H](C)[C@@H](CN(C)CC2CC2)Oc2ccc(NC(=O)C3CCCCC3)cc2CC1=O
 : x	x	x	x	i	0.9	2	14	-1.2
CCOC(=O)CSc1ccc(S(=O)(=O)N(C)C2CCCCC2)cc1[N+](=O)[O-]
 : 0.71	-4	2.2	5%	i	3.1	-6	-7	0.3
O=c1c2ccccc2ncn1-c1ccc([N+](=O)[O-])cc1[N+](=O)[O-]
 : 0.66	-155	2.2	1%	i	1.2	4	6	-4.7
O=C(CC1CC1)Nc1ccc2c(c1)[C@@H]1C[C@@H](CC(=O)NC3CCCC3)O[C@@H](CO)[C@@H]1O2
 : x	x	x	x	i	-1.1	-1	2	-1.9
C[C@H]1CN([C@@H](C)CO)C(=O)CCCn2cc(nn2)CO[C@@H]1CN(C)Cc1ccc(C(F)(F)F)cc1
 : x	x	x	x	i	0.0	-1	-1	-0.4
CC1(C(=O)NCc2ccccc2)CN(S(C)(=O)=O)CC(=O)N1CCc1c[nH]c2ccccc12 (stereo not drawn)
 : x	x	3.2	x	i	2.2	2	-4	-6.5
CCCNC(=O)N(C)C[C@@H]1Oc2cc(C#CC(C)(C)O)ccc2S(=O)(=O)N([C@@H](C)CO)C[C@H]1C
 : x	x	x	x	i	-11	3	0	-0.7
c1ccc(-c2nc(NCC3CCCO3)c3oc4ccccc4c3n2)cc1 (stereo not drawn)
 : 0.76	-9	0.3	6%	x	x	x	x	x
Cc1ccccc1CS(=O)(=O)c1nnc([C@H](Cc2ccccc2)NC(=O)OC(C)(C)C)o1
 : 0.71	50	-1.6	-10%&0%	i	4.1	14	12	0.8
CC(c1ccc(F)cc1)n1c(Cn2ncc3ccccc3c2=O)n[nH]c1=S (stereo not drawn)
 : 0.7	x	2.6	10%	i	-9.2	2	-21	-1.8
O=C(C[C@H]1C[C@@H]2c3cc(NC(=O)C4CCOCC4)ccc3O[C@@H]2[C@@H](CO)O1)NCCc1ccccc1
 : x	x	x	x	i	-1.2	-1	2	-3.5
O=C(Nc1ccccc1C(=O)NCc1ccco1)NC1CCCCC1
 : 0.75	3	0.2	2%	x	x	x	x	x
CC(=O)NCCC(=O)Nc1ccc(F)cc1C
 : 0.74	-24	22	1%	x	x	x	x	x

# Next section; the last 3 above are carried over.
# Each structure is followed by: E coli growth	ALR H2O2 inh	HNF4A DNA FP	Vif TR-FRET	FGF22 binding	AF4-AF9 inh	Ecoli rRNA inh	Ecoli rRNA inh OD600	Ecoli rRNA inh RFP
O=C(C[C@H]1C[C@@H]2c3cc(NC(=O)C4CCOCC4)ccc3O[C@@H]2[C@@H](CO)O1)NCCc1ccccc1
 : x	x	x	x	i	-1.2	-1	2	-3.5
O=C(Nc1ccccc1C(=O)NCc1ccco1)NC1CCCCC1
 : 0.75	3	0.2	2%	x	x	x	x	x
CC(=O)NCCC(=O)Nc1ccc(F)cc1C
 : 0.74	-24	22	1%	x	x	x	x	x
COc1ccc(OC)c(NC(=O)C2C3CCC(C3=C(C)C)C2C(=O)O)c1 (stereo not drawn)
 : 0.71	x	-6.3	8%	x	x	x	x	x
O=C(C[C@@H]1CC[C@@H](NC(=O)Nc2ccc(C(F)(F)F)cc2)[C@H](CO)O1)NCCN1CCCC1
 : x	x	x	x	i	5.5	0	8	3.2
C[C@H](CO)N1C[C@H](C)[C@@H](CN(C)Cc2cccc(O)c2)OCc2cn(nn2)CCCC1=O
 : x	x	x	x	i	0.5	1	2	-1.7
Cc1cc2n(n1)C(c1sccc1C)Nc1c(C)cccc1-2 (stereo not drawn)
 : 0.7	11	-2.9	1%	x	x	x	x	x
CN1CCc2c(sc3c2C(=O)NC(c2ccc4c(c2)OCO4)N3)C1 (stereo not drawn)
 : 0.7	0	-4.9	x	i	0.7	15	10	-2.2
COc1cc(NC(=O)COC(=O)CCOc2ccc(C)cc2)cc(OC)c1
 : 0.71	-19	1.3	7%	i	-6.7	-12	-11	1.6
CC(=O)N(C)C[C@@H]1Oc2cc(-c3ccc(F)cc3)ccc2S(=O)(=O)N([C@@H](C)CO)C[C@@H]1C
 : x	x	x	x	i	-0.1	-4	1	-4.3
CCCNC(=O)[C@@H]1[C@@H](CO)[C@@H]2Cn3c(ccc(-c4ccc(C(=O)N(C)C)cc4)c3=O)[C@@H]2N1CCC
 : x	x	x	x	i	-1.8	0	4	0.4
O=C(NC1=NCCS1)Nc1ccccc1
 : 0.67	1	-2.1	24%	x	x	x	x	x
COc1cc(/C=C(/C#N)c2nc3ccccc3[nH]2)ccc1OCc1ccc(C(=O)O)o1
 : x	2	5.2	10%	i	0.9	3	-9	23
COc1ccc(CN(CC(=O)NCc2ccc(F)cc2)C(=O)c2csnn2)cc1
 : 0.65	2	3.2	x	i	-0.9	3	9	1.1
CNCc1ccccc1OCC(=O)Nc1ccccc1
 : 0.63	4	0.9	3%	x	x	x	x	x
O=C(Cc1cccs1)N1CCN(S(=O)(=O)c2cc(Cl)ccc2Cl)CC1
 : 0.62	-14	0.3	6%	i	-1.5	-1	-6	0.5
Cc1noc(C)c1NC(=O)N(C)C[C@H]1Oc2ccc(NC(=O)Cc3ccccc3)cc2CC(=O)N([C@H](C)CO)C[C@H]1C
 : x	x	x	x	i	-0.6	2	12	-0.9
CCN(c1cc(C)cc(C)c1)S(=O)(=O)c1nnc(NC(=O)C(C)C)s1
 : 0.69	1	1.9	x	i	2.8	6	1	-1.6
Cc1ccc(-c2nc3ccccn3c2NC(=O)c2ccco2)cc1
 : 0.67	16	3.0	-6%	i	1.4	-1	-1	-6.8
C[C@@H]1CN([C@@H](C)CO)C(=O)c2cccc(N(C)C)c2O[C@H]1CN(C)Cc1ccncc1
 : x	x	x	x	i	-3.4	2	7	-0.4
CSc1nsc(SCC(=O)N2CCN(c3ccccc3)CC2)n1
 : 0.7	57	1.9	4%	x	x	x	x	x
CC1CN(C(=O)c2cccc(S(=O)(=O)NCc3ccccc3)c2)CC(C)O1 (stereo not drawn)
 : 0.71	x	-3.3	-10%	i	2.4	5	3	-2.5
COc1ccc(C(=O)C(CCC(CNC(C)(C)C)C(=O)c2ccc(OC)cc2)CNC(C)(C)C)cc1 (stereo not drawn)
 : 0.69	u	0.3	17%	x	x	x	x	x
COc1cccc(NC(=O)N(C)C[C@@H]2Oc3cc(C#Cc4ccncc4)ccc3S(=O)(=O)N([C@@H](C)CO)C[C@H]2C)c1
 : x	x	x	x	i	3.7	-4	-9	3.8
Cc1nn(CCCC(=O)NCCc2ccc(Cl)cc2)c(=O)c2nn(-c3ccccc3)c(C)c12
 : 0.67	-8	-0.9	x	i	-0.5	3	12	-5.4
COc1cc(NC(=O)c2ccc(-c3cccc([N+](=O)[O-])c3)o2)ccc1NC(=O)C(C)C
 : 0.72	-16	1.5	1%	i	-1.1	-9	18	-4.0
CCOC(=O)N1CCN(C(=O)Nc2ccccc2)CC1
 : 0.7	x	-1.1	8%	x	-4.7	3	10	-0.9
COc1cccc(CN2CCNC(=O)C2CC(=O)N(C)C2CCCCC2)c1 (stereo not drawn)
 : 0.65	-4	1.2	-5%	i	4.2	-3	-10	0.7
O=C(Nc1nc2c(s1)CCCC2)c1cccc(S(=O)(=O)N2CCCc3ccccc32)c1
 : 0.73	-5	5.2	x	i	1.6	-1	4	5.9
